Vaccinia inh = blocks a specific stage of Vaccinia orthopoxvirus infection, primary screen, cell-based, single point; activity change (mCherry), % (no concentration beside the values); AID 1053133, 2014; Vaccinia-infected cells, mCherry/Venus stage reporter fluorescence; active compounds read low; some inactives read as strong as hits; hit rate 0.01% among 89,000;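 active = mCherry past -33% and 40 or more points under the early reporter, replicates agreeing; inconclusive = past -33% without that gap or agreement; tested in A549 cells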;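 also: scaled between vehicle wells and reference inhibitor wells; 23 nL library stock went into each well; one replicate is shown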
Vaccinia inh Venus = recorded beside Vaccinia inh, whose call it bears; activity change (Venus), %; measured here: Venus reporter, other viral stage;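 negative = less Venus signal; first of two replicates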
The depositor's hits bear a star; ? = inconclusive; . = not tested or not shown; & = joins results of further samples.

SMILES	Vaccinia inh	Vaccinia inh Venus
CCO[C@@H]1OC(C(=O)N2CCN(Cc3ccc4c(c3)OCO4)CC2)=C[C@H](c2ccccc2)[C@H]1CCCO	-6	-9
C[C@@H]1CN([C@H](C)CO)C(=O)c2cccc(NC(=O)Nc3ccc4c(c3)OCO4)c2O[C@H]1CN(C)S(=O)(=O)c1ccccc1	5	1
CC(=O)N1[C@@H]2c3ccc(C4=CCCC4)c(=O)n3C[C@H]1[C@H](CO)[C@H]2C(=O)NCC1CC1	-1	-6
COc1cccc(NC(=O)N(C)C[C@H]2Oc3cc(C#CC4(O)CCCC4)ccc3S(=O)(=O)N([C@H](C)CO)C[C@H]2C)c1	-6	-12
Cc1noc(C)c1NC(=O)N[C@H]1C=C[C@@H](CC(=O)Nc2ccccc2)O[C@H]1CO	-7	-6
C[C@H](CO)N1C[C@H](C)[C@H](CN(C)C(=O)Nc2ccc(F)cc2)Oc2c(NS(=O)(=O)c3cn(C)cn3)cccc2C1=O	17	11
COCC(=O)Nc1ccc2c(c1)OC[C@@H](C)N(Cc1ccncc1)C[C@@H](C)[C@@H](OC)CN(C)C2=O	5	3
Cc1ccc(S(=O)(=O)N[C@@H]2CC[C@@H](CCn3cc(-c4ccccc4F)nn3)O[C@H]2CO)cc1	-15	-13
C[C@@H]1CCCCO[C@@H](CN(C)CC2CC2)[C@H](C)CN([C@H](C)CO)C(=O)c2cc(NC(=O)Nc3ccc(F)cc3)ccc2O1	-8	-6
O=C(O)C1=C[C@H](c2ccc3c(c2)OCO3)C[C@H](OCCCCO)O1	8&12	1&9
O=C(N[C@@H]1CC[C@H](CCn2cc(Cc3ccccc3)nn2)O[C@H]1CO)c1cnccn1	-9	-6
C/C=C/c1cnc2c(c1)C(=O)N([C@H](C)CO)C[C@H](C)[C@@H](CN(C)C(=O)Nc1ccc(F)cc1)O2	8	5
C[C@@H]1CN([C@@H](C)CO)C(=O)CCCn2nncc2CO[C@H]1CN(C)C	9	6
COc1ccc(C#Cc2cccc(-c3nc(C(=O)O)cc4c3[C@@H](CCO)N(S(=O)C(C)(C)C)C4)c2)cc1OC (stereo not given in full)	6	8
Cc1noc(C)c1NC(=O)Nc1ccc2c(c1)C(=O)N([C@H](C)CO)C[C@@H](C)[C@@H](CN(C)CC1CCCCC1)OCCCC[C@@H](C)O2	-7	-5
O=S(=O)(c1ccccc1)N1CCCCN2[C@@H](CO)[C@H](c3ccc(C#Cc4cccnc4)cc3)[C@@H]2C1	-4	-7
C[C@H](CO)N1C[C@H](C)[C@H](CN(C)C(=O)NC2CCCCC2)Oc2ncc(-c3cccc(F)c3)cc2C1=O	8	3
C[C@H]1CN([C@@H](C)CO)C(=O)c2ccccc2-c2ccccc2CO[C@H]1CN(C)C(=O)Nc1ccccc1	20	11
C[C@H]1CN([C@@H](C)CO)C(=O)Cc2cc(NC(=O)Nc3ccccc3)ccc2O[C@@H]1CN(C)C(=O)NC1CCCCC1	4	8
COCC(=O)N1[C@@H]2c3ccc(C4=CCCCC4)c(=O)n3C[C@@H]2[C@@H](CO)[C@@H]1C(=O)N1CCOCC1	24	12
COCC#Cc1ccc([C@@H]2[C@H](CO)N3C(=O)CN(C(=O)Nc4ccc(F)cc4)C[C@@H]23)cc1	8	12
O=C(c1cccnc1)N1CC[C@H]2[C@H](CO)Nc3ccc(-c4ccccc4)cc3[C@H]21	7	0
C[C@@H]1CN([C@@H](C)CO)C(=O)c2cc(NC(=O)C3CCCCC3)ccc2O[C@@H]1CN(C)C(=O)Nc1ccccc1	-4	-5
COc1ccc(NC(=O)N(C)C[C@@H]2OCCCC[C@@H](C)Oc3ccc(NC(=O)Cc4ccccc4)cc3C(=O)N([C@H](C)CO)C[C@H]2C)cc1	?	.
Cc1ccc(S(=O)(=O)N(C)C[C@@H]2OCCCC[C@H](C)Oc3ccc(N(C)C)cc3C(=O)N([C@H](C)CO)C[C@H]2C)cc1	-15	-5
CCCNC(=O)N1CC(=O)N2[C@@H](CO)[C@@H](c3ccc(C#Cc4ccc(F)cc4)cc3)[C@@H]2C1	?	.
CCCC(=O)Nc1ccc2c(c1)C(=O)N(C)C[C@H](OC)[C@H](C)CN[C@@H](C)CO2	4	-3
COc1ccc(NC(=O)Nc2ccc3c(c2)C(=O)N([C@@H](C)CO)C[C@H](C)[C@@H](CN(C)C(=O)c2ccccc2)OCCCC[C@H](C)O3)cc1	-10	-7
COCC#Cc1cnc2c(c1)C(=O)N([C@@H](C)CO)C[C@@H](C)[C@H](CN(C)C(=O)C1CCC1)O2	12	15
C[C@@H]1CN([C@H](C)CO)C(=O)c2cc(NS(C)(=O)=O)ccc2O[C@@H]1CN(C)C(=O)Nc1cccc2ccccc12	18	8
C[C@@H]1CN([C@@H](C)CO)C(=O)c2cc(/C=C/c3ccccc3)cnc2O[C@H]1CN(C)C(=O)Cc1ccccn1	13	11
C[C@H]1CN([C@@H](C)CO)S(=O)(=O)c2ccc(C#Cc3ccccn3)cc2O[C@H]1CN(C)C(=O)C1CC1	-1	-1
C[C@H](CO)N1C[C@H](C)[C@@H](CN(C)C)Oc2ccc(NC(=O)CCN3CCOCC3)cc2CC1=O	20	12
COc1ccc(S(=O)(=O)Nc2ccc3c(c2)[C@@H]2C[C@H](CC(=O)N(C)C)O[C@@H](CO)[C@@H]2O3)cc1	-8	-12
CCC(=O)N1CC2(C1)[C@H](c1ccccc1)[C@H](CO)N2CC1CC1	-7	-1
C[C@@H]1CN([C@@H](C)CO)C(=O)c2cccc(NC(=O)C3CCCCC3)c2O[C@@H]1CN(C)CC1CCCCC1	-4	0
C[C@@H]1CN([C@H](C)CO)C(=O)c2cccc(NC(=O)Nc3ccc(F)cc3)c2O[C@@H]1CN(C)S(=O)(=O)c1ccc(F)cc1	-7	-8
CCCN1[C@@H]2c3ccc(/C=C/c4ccccc4)c(=O)n3C[C@@H]2[C@@H](CO)[C@@H]1C(=O)NCC1CC1	-30	6
C[C@H](CO)N1C[C@H](C)[C@@H](CN(C)C(=O)NC2CCCC2)Oc2ncc(C3=CCCC3)cc2C1=O	5	1
O=C([C@H]1[C@H](CO)[C@H]2Cn3c(ccc(-c4ccccc4)c3=O)[C@H]2N1CCC(F)(F)F)N1CCOCC1	15	16
C[C@@H]1CCCCO[C@@H](CN(C)C(=O)NC2CCCCC2)[C@@H](C)CN([C@@H](C)CO)C(=O)c2cc(NC(=O)C3CCCCC3)ccc2O1	-14	-7
CC(C)NC(=O)N(C)C[C@@H]1Oc2c(NC(=O)c3ccncc3)cccc2C(=O)N([C@H](C)CO)C[C@@H]1C	11	12
C[C@@H]1CCCCO[C@H](CN(C)CC2CC2)[C@H](C)CN([C@H](C)CO)C(=O)c2cc(NS(=O)(=O)c3ccc(F)cc3)ccc2O1	-3	3
CNC[C@@H]1Oc2ccc(NC(=O)NC(C)C)cc2C(=O)N([C@@H](C)CO)C[C@@H]1C	2	4
O=C(C[C@H]1C[C@H]2c3cc(NC(=O)Nc4ccccc4F)ccc3O[C@H]2[C@@H](CO)O1)NCCc1ccccc1	3	8
O=C(C[C@@H]1C[C@@H]2c3cc(NC(=O)Nc4ccccc4F)ccc3O[C@@H]2[C@@H](CO)O1)NC1CCCC1	1	3
CC(C)N(C[C@H]1N[C@@H](CO)[C@H]1c1ccccc1)C(=O)c1ccccc1	10	17
CN(C)C(=O)[C@H]1[C@H](CO)[C@H]2Cn3c(ccc(C4=CCCC4)c3=O)[C@@H]1N2Cc1cccnc1	5	14
C[C@@H]1CCCCO[C@@H](CN(C)C(=O)c2ccccc2)[C@H](C)CN([C@H](C)CO)C(=O)c2cc(NC(=O)Nc3ccc4c(c3)OCO4)ccc2O1	7	-5
Cc1noc(C)c1S(=O)(=O)Nc1ccc2c(c1)C(=O)N([C@H](C)CO)C[C@@H](C)[C@H](CN(C)C(=O)Nc1cccc3ccccc13)OCCCC[C@@H](C)O2	8	6
C[C@H](CO)N1C[C@H](C)[C@H](CN(C)C(=O)Nc2cccc(F)c2)Oc2cc(C#CC3(O)CCCC3)ccc2S1(=O)=O	?	-4
CCS(=O)(=O)N1CCC2(CC1)CN[C@@H](CO)c1c2c2ccc(OC)cc2n1C	4	8
COCC#Cc1ccc2c(c1)O[C@@H](CN(C)S(=O)(=O)c1ccc(OC)cc1)[C@@H](C)CN([C@@H](C)CO)S2(=O)=O	5	1
C[C@@H]1CCCCO[C@@H](CN(C)Cc2ccc3c(c2)OCO3)[C@@H](C)CN([C@H](C)CO)C(=O)c2cc(NS(=O)(=O)c3ccc(F)cc3)ccc2O1	-3	-15
C[C@@H](NC(=O)C[C@H]1CC[C@H](NC(=O)C2CC2)[C@H](CO)O1)c1ccccc1	7	9
C[C@H](CO)N1C[C@H](C)[C@@H](CN(C)Cc2ccc(Cl)c(Cl)c2)Oc2c(cccc2N(C)C)C1=O	-22	-13
C[C@H]1CN([C@@H](C)CO)S(=O)(=O)c2ccc(-c3cccc(F)c3)cc2O[C@H]1CN(C)S(=O)(=O)c1ccccc1	?	.
C[C@H]1CN([C@@H](C)CO)C(=O)c2cc(C3=CCCCC3)cnc2O[C@H]1CN(C)Cc1ccccn1	-12	-10
Cc1ccc(S(=O)(=O)N(C)C[C@H]2OCCCC[C@H](C)Oc3ccc(NC(=O)NC(C)C)cc3C(=O)N([C@H](C)CO)C[C@H]2C)cc1	12	6
CO[C@@H]1CC[C@@H]2CCN(C)C(=O)[C@H](C)[C@H](OC)CN(C)C(=O)c3cccc(C#N)c3OC[C@@H]1O2	13	5
(continued)
SMILES	Vaccinia inh	Vaccinia inh Venus
O=S(=O)(N[C@H]1CC[C@@H](CCn2cc(-c3cccnc3)nn2)O[C@@H]1CO)c1ccccc1	10	8
COc1cccc(C(=O)Nc2ccc3c(c2)OC[C@@H](C)N(C(C)=O)C[C@H](C)[C@H](OC)CN(C)C3=O)c1	12	7
CO[C@@H]1CN(C)C(=O)c2cc(NC(=O)C3CC3)ccc2OC[C@@H](C)N(Cc2cncnc2)C[C@H]1C	0	3
CCC(=O)Nc1ccc2c(c1)C(=O)N(C)[C@H]1CC[C@H](CC(=O)NCc3ccc(OC)cc3)O[C@H]1CO2	0	4
CCN(C[C@@H]1[C@@H](c2ccccc2)[C@@H](CO)N1CC1CC1)C(=O)c1ccccc1F	12	3
Cc1ccc(S(=O)(=O)N(C)C[C@@H]2OCCCC[C@@H](C)Oc3ccc(NC(=O)Nc4c(C)noc4C)cc3C(=O)N([C@@H](C)CO)C[C@@H]2C)cc1	14	8
Cc1ccc(S(=O)(=O)N[C@@H]2C=C[C@H](CC(=O)NCc3ccncn3)O[C@@H]2CO)cc1	3	2
COCC(=O)N1CC2(CN(Cc3ccc(OC)cc3)C2)c2c([nH]c3cc(OC)ccc23)[C@H]1CO	-8	-7
O=C(CC1CC1)N1CC[C@@H]2[C@@H](CO)Nc3ccc(-c4cccc(F)c4)cc3[C@@H]21	-2	-9
COc1ccc2c3c([nH]c2c1)[C@@H](CO)N(C(=O)NC(C)C)CC31CCN(C(=O)C2CCCCC2)CC1	-8	-9
COc1ccccc1-c1cn(CC[C@@H]2CC[C@@H](NC(=O)Cc3ccccn3)[C@H](CO)O2)nn1	4	5
C[C@H](NC(=O)[C@@H]1[C@@H](CO)[C@@H]2Cn3c(ccc(-c4ccccc4F)c3=O)[C@H]1N2)c1ccccc1	4	1
C[C@H]1CN([C@@H](C)CO)S(=O)(=O)c2ccc(C3=CCCCC3)cc2O[C@@H]1CN(C)C(=O)Nc1ccc2c(c1)OCO2	?	.
C[C@@H]1CN([C@H](C)CO)C(=O)c2cc(NS(=O)(=O)c3ccc(F)cc3)ccc2O[C@@H]1CN(C)Cc1ccc(C(=O)Nc2ccccc2N)cc1	5	-2
CCC(=O)N1C[C@H]2[C@@H](c3ccccc31)[C@@H](CO)N2CC1CCCC1	23	18
CC(C)(C)[S@](=O)N1Cc2cc(C(=O)O)nc(-c3cccc(-c4cccc(F)c4)c3)c2[C@@H]1CCO	22	14
O=C(NCC[C@H]1CC[C@@H](NS(=O)(=O)c2cccc(F)c2)[C@@H](CO)O1)c1cnccn1	9	12
COC(=O)[C@H]1[C@H](CO)[C@H]2Cn3c(ccc(-c4ccccc4)c3=O)[C@@H]1N2CC1CC1	6	2
C[C@@H]1CN([C@H](C)CO)C(=O)Cc2cc(NS(=O)(=O)c3ccc(F)cc3)ccc2O[C@H]1CN(C)Cc1ccc(C(=O)Nc2ccccc2N)cc1	20	0

Some of the compounds tested, so the mix of outcomes need not match the whole.
